Compound activity as filed in PubChem.
H5N1 CPE: MDCK cell protection from H5N1 avian flu; cytopathic effect, luminescence, 72 h; stronger effect = higher value; no value below 0 was filed and about half of the inactive calls have no number; reference of the scale not given here; inhibition, % at 50 µM; 0.07% of 96,000 active; in the data active = inhibition above about 25%
* = called active by the depositor; i = inactive. A portion of the library, so the mix of outcomes need not match the whole.

compound | H5N1 CPE
C=CCOC(=O)C1=C(C)OC(N)=C(C#N)C1c1ccc(F)cc1 (configuration not stated) | i
O=C(CNS(=O)(=O)c1ccc(C(=O)N2CCOCC2)cc1)N1CCOCC1 | 0.3
CCNC(=S)N/N=C/c1ccc(OCC(=O)Nc2ccc(C)cc2)cc1 | i
CC1CCN(C(=O)COC(=O)c2ccc(Br)o2)CC1 | i
O=C(O)c1ccc(-n2c(-c3cc(-c4ccco4)[nH]n3)n[nH]c2=S)cc1 | 0.5
CC(C)c1ccccc1NC(=S)NN(Cc1ccccc1)c1ccccc1 | 0.3
COc1ccccc1-n1c(C)nc(=O)c(-c2ccccc2)c1C | i
Cc1ccc(-c2cc(C)nc3ncnn23)cc1 | 0.5
CN(Cc1ccccc1)c1oc(-c2ccco2)nc1C#N | 0.8
CC1(C)N(O)CC(c2cccs2)=[N+]1[O-] | i
COc1ccc(C(=O)O)cc1NS(=O)(=O)c1cccc2nsnc12 | 2.1
COc1ccc(NC(=O)N2CCN(c3nc(-c4cccc(OC)c4)cs3)CC2)cc1 | 1.9
CC(NC(=O)Nc1ccc(Cl)cc1)C(c1cccs1)N1CCOCC1 (configuration not stated) | 0.5
C/C=C/Cn1c(SCCCc2ccccc2)nc2c1c(=O)[nH]c(=O)n2C | 0.5
CCOc1c(Br)cc(/C=C2/SC(=O)N(CC(=O)N3CCCC3)C2=O)cc1OC | 0.1

Compounds shown so far that contain nitrogen in an aromatic ring, in the order listed:
compound | H5N1 CPE
O=C(O)c1ccc(-n2c(-c3cc(-c4ccco4)[nH]n3)n[nH]c2=S)cc1 | 0.5
COc1ccccc1-n1c(C)nc(=O)c(-c2ccccc2)c1C | i
Cc1ccc(-c2cc(C)nc3ncnn23)cc1 | 0.5
CN(Cc1ccccc1)c1oc(-c2ccco2)nc1C#N | 0.8
COc1ccc(C(=O)O)cc1NS(=O)(=O)c1cccc2nsnc12 | 2.1
COc1ccc(NC(=O)N2CCN(c3nc(-c4cccc(OC)c4)cs3)CC2)cc1 | 1.9
C/C=C/Cn1c(SCCCc2ccccc2)nc2c1c(=O)[nH]c(=O)n2C | 0.5

Next section
compound | H5N1 CPE
COc1ccccc1N1CCN(C(=O)C(C)N(c2ccc(C)cc2)S(C)(=O)=O)CC1 (configuration not stated) | 0.8
CC(=O)N1CCCc2cc(S(=O)(=O)NCc3ccc(C)cc3)ccc21 | 1.7
Cc1ccc(/C=C(/C#N)c2nc(CCN3C(=O)c4ccccc4C3=O)cs2)cc1 | i
COc1ccc(CNc2nc(-c3cccnc3)nn2C(=O)c2ccco2)cc1 | i
COC(=O)c1ccccc1NC(=O)CSc1nnc(C(CO)NC(=O)c2ccccc2)n1C (configuration not stated) | 2.8
COc1cccc(C(=O)Nc2cc(C)ccc2NC(=O)COc2ccccc2)c1 | i
O=C(N/N=C/C1CCCCC1)c1ccccn1 | i
COc1cc(C=O)ccc1OCCSc1ccc(Cl)cc1 | 0.3
Cn1c(=O)c2c(nc(NCc3cccnc3)n2Cc2ccc(Cl)cc2)n(C)c1=O | 3.6
COCCCNC(=O)CCc1nc(-c2ccccc2Cl)no1 | 0.5
O=C(Nc1ccccc1)O/N=C/c1ccccc1Cl | 1.3
CCn1cc(C(=O)NCc2ccc(Cl)cc2)c(=O)c2cc(S(=O)(=O)N3CCOCC3)ccc21 | i
CC(C)N(CCCNC(=O)CC1Oc2ccccc2NC1=O)Cc1ccccc1 (configuration not stated) | i
Cc1cccc(N2CC(C(=O)OCC(=O)c3ccc(OC(=O)c4cccs4)cc3)CC2=O)c1C (configuration not stated) | i
COc1ccccc1NC(=O)C(=O)N/N=C(\C)CC(=O)Nc1ccc(OCc2ccccc2)cc1 | i
CC(=O)Nc1ccc(OCC(O)Cn2cnc3ccccc32)cc1 (configuration not stated) | i
Cc1cc(NC(=O)CSc2nc3ccccc3n2CC(=O)N2CCCCC2)no1 | i
COc1ccccc1-c1nc(C#N)c(N2CCN(Cc3ccccc3)CC2)o1 | 1.4
COc1ccccc1NC(=O)CSc1nnc(-c2ccc(NC(C)=O)cc2)n1C | 0.2
CCOc1cc(C2CC(=O)NC3=C2C(=O)C(C(=O)OC)C(C)C3)cc(Cl)c1O (configuration not stated) | 1.3
COc1ccc(OC(C)C(=O)N2CC(C)OC(C)C2)cc1 (configuration not stated) | i
CCOc1cc(C(=O)Nc2nnc(C)s2)cc(OCC)c1OCC | 1.3
COc1ccc(-c2cc(C(=O)Nc3cc(C)nn3-c3ccccc3)no2)cc1 | i
O=C(CCNc1cccc(C(F)(F)F)c1)c1ccco1 | i
COc1ccc(-n2nnnc2-c2cnc(N3CCCC3)nc2C(F)(F)F)cc1 | 0.7
CCC(C)C(=O)Nc1nc2c(s1)C(=O)CC(C)(C)C2 (configuration not stated) | 1.6
Cn1c(Cn2c(=O)sc3ccccc32)nnc1SCC(=O)N1CCN(c2ccccc2)CC1 | 0.8
COc1ccc(CCn2c(=N)c(C(=O)NCc3ccco3)cc3c(=O)n4cccc(C)c4nc32)cc1 | 15.1
CCc1cc2cc(C(=O)Nc3ccccc3F)sc2s1 | i
Cc1cc(C(=O)NCc2cc(C)n(C)n2)sc1-c1ccccc1 | 1.4
COc1ccc(CCNc2oc(-c3ccccc3OC)nc2C#N)cc1OC | i
CC(=O)Nc1cccc(-c2nnc(-c3ccccc3)o2)c1 | i
CCCC(=O)Nc1cccc(-c2cn3ccsc3n2)c1 | i
O=C1CC(=C(c2ccccc2)c2ccccc2)C(=O)N1CCCN1CCN(c2cccc(Cl)c2)CC1 | i
CCCCOc1ccc(NC(=O)CSc2nnnn2C)cc1 | i
Cc1ccccc1CS(=O)(=O)Cc1ccc(C(=O)NCC2CCCO2)o1 (configuration not stated) | 0.3
CC1=C(C(=O)Nc2ccc(C)cc2C)C(c2ccc([N+](=O)[O-])cc2)n2ncnc2N1 (configuration not stated) | i
O=C(NCc1ccccc1)c1ccc(Cl)cc1[N+](=O)[O-] | i
OC(CSc1c(Cl)cccc1Cl)CN1CCN(c2ccc(F)cc2)CC1 (configuration not stated) | 1.1
O=C(COC(=O)CCC1CCCCC1)Nc1ccc(OC(F)F)cc1 | i
CC(C)(C)c1ccc(CS(=O)(=O)CC2(O)CCN(C(=O)c3cccc(C(F)(F)F)c3)CC2)cc1 | i
COc1ccc(N2C(=O)CCC(C(=O)c3ccccc3)=C2C)cc1 | 0.4
CN(C)CCNC(=O)c1ccc(-c2nn(C)c(=O)c3ccccc23)cc1 | 0.9
Cc1ccc(C(=O)Nc2c3c(nn2C(C)(C)C)CS(=O)(=O)C3)cc1C | i
O=C(Nc1ccccc1-c1nnc(SCc2ccccc2)o1)c1ccccc1 | i
CNC(=S)Nc1ccc2nc(C)c(C)nc2c1 | 2.2
Cn1c2c(c(=O)n(C)c1=O)[C@@H]1c3c(ccc4ccccc34)OC[C@@H]1CO2 | i
COc1ccc(S(=O)(=O)N(CC(=O)NC2CC2)C2CCCCC2)cc1Cl | i
COc1ccc(C(=O)/C(C)=N/O)cc1OC | i
CC(=O)c1ccc(N2C(=O)[C@@H]3C(CCC(N)=O)NC4(C(=O)Nc5c4ccc(Cl)c5C)[C@@H]3C2=O)cc1 (some centres not stated) | 1.4
O=C(Cc1cccs1)Nc1ccc(-c2nc3ccccc3[nH]2)cc1 | i
CNC(=S)N1CCN(c2ccccc2OC)CC1 | i
COc1ccc(C2=NOC(C(=O)NCc3cccs3)C2)cc1 (configuration not stated) | i
COc1ccc(NC(=O)CCS(=O)(=O)c2cccc3nonc23)c(OC)c1 | 0.4
O=C(Cn1nnc(-c2cccs2)n1)N1CCc2ccccc2C1 | i
CCC(CC)C(=O)Nc1cccc(-c2nc3ccccc3o2)c1 | i
CC(=O)N1CCC(N(C(=O)Nc2c(F)cccc2F)C(C)C)CC1 | i
Brc1ccc(CN2CCN(c3ccccn3)CC2)s1 | i
Cc1cc(Cl)ccc1OC(C)c1nnc(N)s1 (configuration not stated) | 0.9
CCOc1ccc(NC(=O)CN(C)CC(=O)NC2CCCc3ccccc32)cc1OCC (configuration not stated) | i

3 entries picked at random from those above, as already listed:
compound | H5N1 CPE
CNC(=S)N1CCN(c2ccccc2OC)CC1 | i
COc1ccc(C2=NOC(C(=O)NCc3cccs3)C2)cc1 (configuration not stated) | i
CC(=O)N1CCC(N(C(=O)Nc2c(F)cccc2F)C(C)C)CC1 | i

Later entries:
compound | H5N1 CPE
COc1ccc(C(=O)Nc2ccccc2NC(=O)c2ccco2)cc1OC | i
CC(C)(C)C(=O)[C@H]1[C@H](c2ccccc2)[C@@]2(N=C(c3ccccc3)OC2=O)C2c3ccccc3C=NN21 (some centres not stated) | i
O=C(O)CCN1/C(=C/C=Nc2ccccc2)Oc2ccccc21 | i
C=CCNc1nc(NCCN2CCOCC2)nc(N2CCOCC2)n1 | 0.4
CCc1ccc2[nH]c(=O)c(CN(Cc3ccc4c(c3)OCO4)Cc3nnnn3C3CCCC3)cc2c1 | i
c1csc(-c2nn3c(C4COc5ccccc5O4)nnc3s2)c1 (configuration not stated) | i
CCSc1nnc(NC(=O)C2CCCCC2C(=O)OCC(F)(F)C(F)F)s1 (configuration not stated) | i
O=C(CN(Cc1ccccc1)S(=O)(=O)c1ccc2c(c1)OCCO2)Nc1ccc2c(c1)OCCO2 | i
CCCC(=O)Nc1ccc2c(c1)nc(CN1CCCCC1)n2C | 0.8
CCc1c(C)[nH]c2nc3ccccc3n2c1=O | 1.5
COc1ccc(Br)cc1C(=O)Nc1nnn(C)n1 | i
CC1Cc2ccccc2N1C(=O)C1CCN(S(=O)(=O)Cc2ccccc2)CC1 (configuration not stated) | i
CCc1nc(SCC(=O)NCCc2ccccc2)n[nH]1 | 0.6
CCOC(=O)CSc1nc2sc(C(=O)O)c(C)c2c(=O)[nH]1 | i
Cc1c(C(=O)Nc2ccc(F)cc2)oc2ccc(S(=O)(=O)N3CC(C)CC(C)C3)cc12 (configuration not stated) | i
COc1cccc(-c2cc(C(=O)NCCN3CCOCC3)no2)c1 | i
CCOCCOCCC(C(=O)OCC)P(=O)(c1ccccc1)c1ccccc1 (configuration not stated) | i
CCc1nc(N2CCCCC2C)c2oc3ccccc3c2n1 (configuration not stated) | 1.2
CCCC(=O)NC(Nc1ccc(S(=O)(=O)Nc2ncccn2)cc1)(C(=O)OCC)C(F)(F)F (configuration not stated) | i
CC1CCN(S(=O)(=O)c2ccc(NC(=O)CN3CCN(c4ccccc4)CC3)cc2)CC1 | i
CCc1ccccc1N(CC(=O)N1CCN(c2ccccc2)CC1)S(C)(=O)=O | 1.1
O=CNCC(=O)NCCc1ccc(Cl)cc1 | i
c1ccc(Cn2nnc3c(NCC4CCCO4)ncnc32)cc1 (configuration not stated) | i
CCn1ncc2c1C(=O)NC1c3ccccc3C(=O)N21 (configuration not stated) | 0.6
Cc1c(NC(=O)c2cc(=O)[nH]c3ccccc23)c(=O)n(-c2ccccc2)n1C | i
O=C(O)CC(CP(=O)(c1ccccc1)c1ccccc1)C(=O)O (configuration not stated) | i
CCOc1ccccc1-n1c(CN2CCN(C(=O)c3ccco3)CC2)nc2ccccc2c1=O | 2.3
COC(=O)C1(S(=O)(=O)c2cc(Br)cc3c2N(C(C)=O)CC3)CC1 | 0.2
CN(C)CC#CCCCCCCC#CCN(C)C | i
Cc1[nH]c2ccccc2c1/C=C(\C#N)S(=O)(=O)c1ccccc1 | 1.2
Nn1c(SCc2cccc(C(F)(F)F)c2)nnc1-c1ccco1 | i
COc1ccc(CCn2nnnc2C(C(C)C)N2CCC(C(N)=O)CC2)cc1OC (configuration not stated) | i
O=C(CSc1nccn1Cc1ccccc1)Nc1nccs1 | 0.6
CSCCC(NS(=O)(=O)c1cccs1)C(=O)NCc1cccs1 (configuration not stated) | 0.2
COC(=O)c1ccccc1NC(=O)N[C@@H](C)C(=O)OC | 0.4
CCCc1c(C(=O)OCC)[nH]c2c1C(=O)CCC2 | i
CC(C)(C)CC(=O)OCC(=O)Nc1cc(C(C)(C)C)nn1-c1ccccc1 | i
CCCCc1ccc(-c2nc(N)n[nH]2)cc1 | i
O=C(CSc1nnnn1C1CCCC1)c1ccc2c(c1)OCCO2 | i
Cc1cccc(NS(=O)(=O)c2cc(C(=O)N3CCN(C)CC3)ccc2C)c1 | 1.8
CCOC(=O)c1cn(CC(=O)Nc2ccccc2C(=O)OCC)nn1 | 0.2
COc1ccc(S(=O)(=O)N2CCC(O)(c3ccc4c(c3)OCO4)CC2)cc1 | 1.4
Cc1ccccc1-n1cnnc1SCC(=O)N1CCN(c2ccccc2)CC1 | 2.3
O=C(NCc1cccs1)C1CCCN(S(=O)(=O)c2cccc3cccnc23)C1 (configuration not stated) | 1.1
Cc1ccc(NC(=O)CSc2nnc([C@@H]3CCCN3C(=O)OC(C)(C)C)o2)c(C)c1 | i
Cn1nnc2cc(NC(=O)N3CC4(C)CC3CC(C)(C)C4)ccc21 (configuration not stated) | 1.0
COc1ccc(C(=O)COc2nc(C)cc(C)c2C#N)cc1 | 0.4
O=S(=O)(/C=C/c1ccccc1)n1cnc2ccccc21 | 0.1
O=C1N(CCCCN2C(=O)C3(OCCO3)c3ccccc32)c2ccccc2C12OCCO2 | i
COc1ccc(N2CCN(C(=O)c3cn(C)c(=O)c4c3c3ccccc3n4C)CC2)cc1 | 1.4
O=C(N=NC(=O)c1ccc2c(O)n(C3CCCCC3)c(O)c2c1)c1cccnc1 | i
CC(C)NS(=O)(=O)c1ccc(OCC(=O)NCc2ccc3c(c2)OCO3)c(Cl)c1 | 0.2
O=C(O)CSc1nc2ccccc2[nH]1 | i
CCC(CO)N=CC1=C(O)C(C(=O)c2ccccc2)CCC1=O (configuration not stated) | i
C(=N\n1cnnc1)/c1cccn1-c1ccccc1 | i
